KCNQ2 inh – KCNQ2 potassium channel inhibitors, primary screen, cell-based, CHO-K1, FluxOR thallium flux, B-score (AID 2156); Potassium voltage-gated channel subfamily KQT member 2 (Rattus norvegicus), O88943; 20 min; hits give low values; only compounds with negative scores are shown here; some inactives read as strong as hits; B-score at 10 µM; actives 1.1% (n = 310,000);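 active = fluorescence ratio B-score at most minus 3 library SDs, with starting brightness B-score within 2 library SDs, cut at about -5.5 in these data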
Target sequence (O88943 whole entry, looked up): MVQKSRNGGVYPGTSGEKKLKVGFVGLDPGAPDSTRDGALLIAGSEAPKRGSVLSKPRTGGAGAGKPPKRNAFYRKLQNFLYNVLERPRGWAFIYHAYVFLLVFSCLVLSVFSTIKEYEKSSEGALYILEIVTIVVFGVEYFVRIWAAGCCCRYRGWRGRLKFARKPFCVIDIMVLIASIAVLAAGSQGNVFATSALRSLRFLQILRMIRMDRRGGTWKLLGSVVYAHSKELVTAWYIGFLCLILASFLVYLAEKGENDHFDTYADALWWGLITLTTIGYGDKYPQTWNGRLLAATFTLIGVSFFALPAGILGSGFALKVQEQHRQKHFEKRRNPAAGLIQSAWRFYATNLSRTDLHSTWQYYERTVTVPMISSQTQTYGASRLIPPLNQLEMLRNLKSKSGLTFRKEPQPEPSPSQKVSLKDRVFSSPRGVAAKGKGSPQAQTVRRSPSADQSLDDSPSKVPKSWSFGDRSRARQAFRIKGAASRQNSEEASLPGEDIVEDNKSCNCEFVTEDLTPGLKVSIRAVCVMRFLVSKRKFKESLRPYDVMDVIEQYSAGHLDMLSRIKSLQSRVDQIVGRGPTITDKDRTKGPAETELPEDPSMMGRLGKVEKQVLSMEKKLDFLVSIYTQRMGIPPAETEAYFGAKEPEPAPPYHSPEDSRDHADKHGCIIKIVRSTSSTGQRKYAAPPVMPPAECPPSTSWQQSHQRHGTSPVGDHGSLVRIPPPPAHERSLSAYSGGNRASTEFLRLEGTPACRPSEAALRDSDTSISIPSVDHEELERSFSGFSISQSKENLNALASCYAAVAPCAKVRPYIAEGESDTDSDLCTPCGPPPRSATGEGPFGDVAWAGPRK
KCNQ2 inh baseline – also measured in KCNQ2 inh; calls as there; B-score; measured here: initial fluorescence intensity artifact check;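 brightness before thallium and not channel activity; 0 = typical well and far values either way flag optical interference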
Active calls of the source: *; i = inactive. These rows are one share of the data. The share of hits here may be higher or lower than overall.

Start of the listing, in advance (3 entries):
Order of values – KCNQ2 inh	KCNQ2 inh baseline
> O=C(N[C@@H](c1ccccc1)[C@@H]1C[C@H]1C(=O)NCc1ccccn1)OCc1ccccc1
 : i	0.99
> CCCn1c(C2CCCN2c2nc(-c3ccc(OC)cc3)cs2)nc2ccccc21 (configuration not stated)
 : i	-0.03
> COc1cccc(NC(=O)N2CCCC2C(=O)NCc2ccccc2F)c1 (configuration not stated)
 : i	0.06

Results, from the first entry:
Order of values – KCNQ2 inh	KCNQ2 inh baseline
> O=C(N[C@@H](c1ccccc1)[C@@H]1C[C@H]1C(=O)NCc1ccccn1)OCc1ccccc1
 : i	0.99
> CCCn1c(C2CCCN2c2nc(-c3ccc(OC)cc3)cs2)nc2ccccc21 (configuration not stated)
 : i	-0.03
> COc1cccc(NC(=O)N2CCCC2C(=O)NCc2ccccc2F)c1 (configuration not stated)
 : i	0.06
> COc1ccc(N2C(=O)C(Cl)=C(Nc3ccc(OC)cc3OC)C2=O)cc1
 : i	0.41
> Cc1cccc(NC(=O)COc2ccc(Br)cc2)n1
 : i	1.53
> FC(F)(F)c1cnc(N2CCC(=NOCc3ccc(Cl)cc3)CC2)c(Cl)c1
 : i	-1.39
> COC(=O)c1cc(NC(=O)c2cc(C(C)(C)C)nn2Cc2cccc(C)c2)ccc1N1CCOCC1
 : i	0.39
> CCOc1ccccc1C(=O)Nn1c(C2CCC2)nc2ccccc2c1=O
 : -6.8*	-0.16*
> CC1CCC(C(C)C)C(OC(=O)C[n+]2cc(-c3ccc(Cl)cc3)n3c2CCCCC3)C1 (configuration not stated)
 : i	-0.37
> O=C(NCCCCc1ccccc1)c1ccccc1
 : i	1.14
> COc1ccc(Cl)c(NCCC(=O)O)c1
 : i	0.49
> CC(C)(C)c1ccc(C(=O)NC(CC(=O)O)c2ccc(OC3CCCC3)cc2)cc1 (configuration not stated)
 : i	-1.15
> COc1ccccc1NC(=O)C(NC(=O)OC(C)(C)C)C(C)OCc1ccccc1 (configuration not stated)
 : i	0.09
> CCc1ccc(/C=C2/Sc3ccccc3N(CC(=O)NCCCN3CCOCC3)C2=O)cc1
 : i	0.34
> CN(C)c1ccc(/C=N/O)cc1
 : i	1.56

The results go on.
Order of values – KCNQ2 inh	KCNQ2 inh baseline
> O=C(c1ccccc1)c1ccc(OCC(O)CNCc2ccc(Cl)cc2)cc1 (configuration not stated)
 : i	-0.81
> CS(=O)(=O)Nc1ccc(S(=O)(=O)Nc2nccs2)cc1
 : i	1.84
> O=C(CN1CCCC1)N1c2ccccc2C=Cc2ccccc21
 : i	-0.06
> O=C(NC(Cc1ccccc1)c1nc2ccccc2[nH]1)C1CC(=O)N(c2ccc3c(c2)OCCO3)C1 (configuration not stated)
 : i	-1.77
> COc1ccc(NC(=O)/C(C#N)=C/c2ncc([N+](=O)[O-])n2C)c(OC)c1
 : i	-0.4
> COc1ccc2nc(C)cc(Nc3ccccc3O)c2c1
 : i	2.7
> CN(C)C(=O)CN1C(=O)c2cccc3cccc1c23
 : i	0.02
> COCCNC(=S)N/N=C(\C)c1ccc(Cl)c(Cl)c1
 : i	-0.1
> COc1ccc(OC)c(N(CC(=O)Nc2ccc3c(c2)OCCO3)S(C)(=O)=O)c1
 : i	-1.14
> CC12CN3CC(C)(CN(C1)C3c1ccccc1)C2O (configuration not stated)
 : i	0.32
> Cc1cc(C)c(C)c(OCCOCCN2CCOCC2)c1
 : i	0.33
> COc1ccc(C(=O)NCCNc2nc3c(C)cccc3cc2C#N)cc1
 : i	1.12
> O=C(NCC1CCCO1)c1ccc2c(c1)N(Cc1ccccc1)C(=O)CS2 (configuration not stated)
 : i	-0.03
> C/C(NC(=O)c1ccccc1)=C1/C(=O)CC2C1C2(C)C (configuration not stated)
 : i	-1.06
> COc1ccccc1N1CCN(C(=O)c2oc3ccc(Br)cc3c2C)CC1
 : i	1.41

Continued:
Order of values – KCNQ2 inh	KCNQ2 inh baseline
> Cc1ccc(S(=O)(=O)Nc2ncccn2)cc1
 : i	-0.11
> COCCN(C(=O)Cn1nnc2ccccc21)C(C(=O)NC1CCCC1)c1cccc(OC)c1OC (configuration not stated)
 : i	-0.74
> CCOc1ccccc1N1CC(C(=O)Nc2ccccc2CC)CC1=O (configuration not stated)
 : i	0.18
> Nc1nc(SCC(=O)Nc2ccc([N+](=O)[O-])cc2)[nH]c(=O)c1NC(=O)c1ccc(Br)cc1
 : i	-0.67
> CN(C(=O)Nc1ccc(Cl)cc1Cl)C1CCCC1
 : i	1.08
> COc1ccc(-n2nc(C(=O)Nc3ccc4c(c3)OCO4)c3c4ccccc4n(C)c3c2=O)cc1
 : i	-0.24
> COc1cc(C(=O)NCCC(C)C)ccc1OCc1ccc(Cl)cc1Cl
 : i	1.02
> CCc1ccc(C2CC(c3ccc(Cl)cc3)=NNC2=O)cc1 (configuration not stated)
 : i	-0.74
> CCN(CC)C(=O)C1CCCN(c2ccc([N+](=O)[O-])cc2)C1 (configuration not stated)
 : i	-0.09
> COc1ccc(-n2cnc3c(cnn3CCC#N)c2=N)cc1
 : i	0.94
> Cc1cc(NS(=O)(=O)c2c(C(=O)N3CCOCC3)c(C)n(C)c2C)ccc1Br
 : i	-1.62
> CC1CC(C)(C)N(C(=O)CN2C(=O)CCC2=O)c2ccccc21 (configuration not stated)
 : i	-2
> CCOc1ccc(S(=O)(=O)NCCSc2ccccc2)cc1
 : i	0.8
> CC(C)NC(=O)c1ccc2c(c1)N(CC(=O)NC1CCCCC1)C(=O)C(C)(C)O2
 : i	1.88
> COc1ccc(/C=C2\SC(=O)N(CCNC(=O)CN3C(=O)NC4(CCCC4)C3=O)C2=O)cc1
 : i	-0.14

Further compounds follow:
Order of values – KCNQ2 inh	KCNQ2 inh baseline
> O=C(CNC(=O)c1[nH]cnc1C(=O)N[C@@H](Cc1ccccc1)C(=O)OCc1ccccc1)OCc1ccccc1
 : i	-1.5
> COc1cc(CN2CCCC(CO)(Cc3cccc(Cl)c3)C2)cc(OC)c1O (configuration not stated)
 : i	1.65
> O=C(OCC(=O)N1CCc2ccccc21)c1ccccc1F
 : i	-0.5
> CCCC(=O)Nc1ccccc1-c1nnn(CC(=O)Nc2ccc(OC)cc2)n1
 : i	1.37
> O=C1C(=O)N(CCCO)C(c2ccccc2)/C1=C(\O)c1ccc(Br)cc1 (configuration not stated)
 : i	0.71
> CCSc1nnc(-c2sc3nnc(-c4ccccc4)c(-c4ccccc4)c3c2N)o1
 : i	5.52
> CCN(CC)S(=O)(=O)c1ccc(-n2cnc3cc(C)c(C)cc32)nc1
 : i	0.43
> CCCN[C@@H]1C(=O)N2C(C(=O)OCCC)=C(C)CS[C@H]12
 : i	-0.05
> CC(C)C(=O)NCCc1nc2ccccc2n1CCCOc1ccc(Cl)cc1
 : i	-0.11
> CC(C)Oc1ccc(/C=C(\NC(=O)/C=C/c2ccco2)C(=O)NCCc2nc3ccccc3[nH]2)cc1
 : i	0.01
> CCn1c(SC)nnc1-c1nn(-c2ccccc2)ccc1=O
 : i	0.64
> Cc1cc(NC(=O)CSc2nnc(-c3ccncc3)n2N)ccc1Br
 : i	-1.38
> Cn1cc(C=O)c(-c2ccc3c(c2)OCCCO3)n1
 : i	1.17
> CC(NC(=O)c1ccc(S(=O)(=O)N(C)C)cc1)c1ccc(-n2ccnc2)cc1 (configuration not stated)
 : i	-0.2
> CC1(C(=O)NCc2ccc(F)cc2)Oc2ccccc2NC1=O (configuration not stated)
 : i	-1.82

Continued:
Order of values – KCNQ2 inh	KCNQ2 inh baseline
> CC1CCN(C(=O)c2ccc(S(=O)(=O)Cc3cccc(F)c3)c([N+](=O)[O-])c2)CC1
 : i	2.82
> O=[N+]([O-])c1cnc(Nc2ccccc2)nc1Nc1ccccc1
 : i	1.41
> CCOc1ccc(=O)n(-c2ccccc2)n1
 : i	0.12
> C=CCC1(CC=C)CCCN1C(=O)c1cc(COc2cncc(Cl)c2)on1
 : i	0.35
> COc1cccc(C(=O)Nc2nnc(-c3ccc(F)cc3)o2)c1
 : i	0.26
> CCN1CCN(c2cc(C)c3cc(NC(=O)c4ccc(C)c(C)c4)ccc3n2)CC1
 : i	-1.09
> CCCN1CCN(CCCNC(=O)c2cc3c(=O)oc4ccc(C)cc4c3s2)CC1
 : i	-1.64
> O=C(NC1CCCC1)C1CCC(=O)N1CCc1ccccc1 (configuration not stated)
 : i	-0.8
> C=CCn1c(=O)c2ccccc2n2c(SCC(=O)Nc3sc(C(=O)N(CC)CC)c(C)c3C(=O)OCC)nnc12
 : i	0.44
> COc1ccccc1N1CCN(S(=O)(=O)c2ccc3c(c2)NC(=O)C(C)C(=O)N3)CC1 (configuration not stated)
 : i	-0.03
> COc1cc(NC(=O)Cn2nc(C(F)(F)F)c3c2CCCC3)cc(OC)c1OC
 : i	-0.16
> COc1ccc(NC(=O)Cn2c(=O)n(Cc3ccco3)c(=O)c3ccccc32)cc1
 : i	0.95
> Cc1ccccc1N=Cc1cc2c(cc1[N+](=O)[O-])OCO2
 : i	1.16
> Cc1cnc(-c2nnc(N(C)C(=O)c3cccnc3)s2)cn1
 : i	-0.64
> COc1cc(NC(=O)CSc2cc(C)c3cc(C)cc(C)c3n2)c(C(=O)O)cc1OC
 : i	-1.33

Further records:
Order of values – KCNQ2 inh	KCNQ2 inh baseline
> c1ccc(-n2c(Sc3cnccn3)nnc2-c2cccs2)cc1
 : i	-0.52
> CC1=C(C(=O)N(C)C)C(c2cccc(Cl)c2)NC(=O)N1 (configuration not stated)
 : i	1.05
> COC(=O)C1N[C@@H]([C@@H](NC(=O)COc2ccccc2)C(=O)NCc2ccccc2)SC1(C)C (some centres not stated)
 : i	0.1
> Cc1ccc(/C=N\Nc2cn[nH]c(=O)c2Cl)cc1
 : i	0.03
> CC(=O)NNC(=S)NCCc1ccccc1
 : i	-1.39
> CCOC(=O)Nc1ccc(Cc2ccncc2)cc1
 : i	1.96
> CC(/C=C/c1ccco1)=N/NC(=O)C1COc2ccccc2O1 (configuration not stated)
 : i	1.18
> CCOc1ccc(-c2c(C(=O)N/N=C/c3ccsc3)nnn2-c2nonc2N)cc1
 : i	0.83
> Cc1ccc(CS(=O)(=O)CCC(=O)NCCc2ccccc2)cc1
 : i	-1.18
> CCCCN(Cc1ccco1)C(=O)c1cc2c(=O)[nH]c3ccc(C)cc3c2s1
 : i	0.05
> N#Cc1c2n(c(=S)n(-c3ccc(OC(F)F)cc3)c1=O)CCCCC2
 : i	4.47
> CCNC(=O)CCS(=O)(=O)c1ccc2ccccc2c1
 : i	0.96
> O=C(O)CCC(=O)NN1C(=O)c2ccccc2NC1c1ccc(F)cc1 (configuration not stated)
 : i	-2.56
> Cc1noc(C)c1C(=O)N1CCCC(N2CCN(c3cccc(C(F)(F)F)c3)CC2)C1 (configuration not stated)
 : i	-0.07
> CCC(=O)c1ccc(OCC(=O)Nc2nn3cnnc3s2)cc1
 : i	0.34

Of the compounds above, these have a CF3 group.
Order of values – KCNQ2 inh	KCNQ2 inh baseline
> FC(F)(F)c1cnc(N2CCC(=NOCc3ccc(Cl)cc3)CC2)c(Cl)c1
 : i	-1.39
> COc1cc(NC(=O)Cn2nc(C(F)(F)F)c3c2CCCC3)cc(OC)c1OC
 : i	-0.16
> Cc1noc(C)c1C(=O)N1CCCC(N2CCN(c3cccc(C(F)(F)F)c3)CC2)C1 (configuration not stated)
 : i	-0.07

The results go on:
Order of values – KCNQ2 inh	KCNQ2 inh baseline
> Cc1ccc(C(=O)COC(=O)C(C)N2C(=O)C3C4C=CC(C4)C3C2=O)cc1 (configuration not stated)
 : i	0.57
> COc1cc(/C=C/c2nc3ccccc3s2)cc(OC)c1O
 : i	1.89
> O=C(NC1CCCCCCC1)c1cccs1
 : i	-0.02
> CCOC(=O)C1(Cc2ccc(OC)cc2)CCN(C(=O)c2cc3ccccc3[nH]2)CC1
 : i	-0.04
> CCOC(=O)c1c(-n2c(C)cc(C=O)c2C)sc2c1CCCC2
 : -6.12*	-0.63*
> COc1ccc(C(=O)Oc2c(CN3CCOCC3)cc(Cl)c3cccnc23)cc1
 : i	1.31
> Cc1ccc(C(=O)N2CCn3c(C)ccc3C2C)cc1 (configuration not stated)
 : i	0.88
> Cc1ccc(O)c(-c2cc(C(F)(F)C(F)F)[nH]n2)c1
 : i	0.99
> COc1cccc(CN2CC(C(=O)N3CCOCC3)CCC2=O)c1 (configuration not stated)
 : i	1.39
> CCc1nc(N2CCN(C(=O)c3ccco3)CC2)c2c3c(sc2n1)CCCC3
 : i	0.5
> O=C(Cc1ccccc1[N+](=O)[O-])Nc1cccc(S(=O)(=O)NC2=NCCCCC2)c1
 : i	0.32
> COc1ccc(C(=O)Nc2c(N)nc(SCC(=O)Nc3ccc(NC(C)=O)cc3)[nH]c2=O)cc1
 : i	0.58
> O=C(NC(Cc1ccccc1)C(=O)O)C1CCN(S(=O)(=O)c2cccc(C(F)(F)F)c2)CC1 (configuration not stated)
 : i	0.95
> COc1ccc(CN2CCSCC2)cc1O
 : i	-1.32
> CCOC(=O)c1c(C)[nH]c(C)c1C(=O)COC(=O)[C@@H](NC(=O)c1ccccc1OCC)C(C)C
 : i	1.39

(list continues)
Order of values – KCNQ2 inh	KCNQ2 inh baseline
> COc1ccc(NS(=O)(=O)NC(=O)c2c(C)n(C)c3ccccc23)cc1
 : i	-2.25
> Cc1ccc(N(C)C(=O)C2CCN(S(=O)(=O)c3ccc4c(c3)oc(=O)n4C)CC2)cc1
 : i	-0.68
> COCc1[nH][nH]c(=O)c1C=Nc1ccc(Cl)cc1
 : i	2.07
> O=c1c(-c2ccc(Oc3ccccc3)cc2)[n+]([O-])c2ccccc2n1OCc1ccccn1
 : i	0.65
> O=C(N/N=C/c1ccc(Br)o1)c1cncc(Br)c1
 : i	-0.85
> Cc1ccc(NC(=O)Nc2ccc(S(N)(=O)=O)cc2)cc1
 : i	-0.51
> O=C(O)c1ccc(N=c2oc3cc(O)ccc3cc2C(=O)NCc2ccccc2)cc1
 : i	0.78
> CC(C)(C)NC(=O)C(c1ccccc1)N(C(=O)c1csnn1)C1CC1 (configuration not stated)
 : i	4.28
> CCOC(=O)N/N=C/c1c[nH]c2ccccc12
 : i	-2.61
> O=C(N/N=C1\CC2CC=CC12)c1ccc(Br)cc1 (configuration not stated)
 : i	1.16
